Measles inh: inhibitors of measles virus growth in infected cells; infected Vero cells, GFP fluorescence, 64 h; active compounds read low; z-score (no concentration beside the values); 33,000 compounds, 0.1% hits; AID 745;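 active = z-score under -3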;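 also: score is relative to mean and SD of the compound wells of a plate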
* marks the source's active call; other numbers are inactive results.

Measles inh	SMILES
0.56	Cc1ccc(N2C(=O)CSC2c2ccc(Cl)cc2)cc1F (centres undefined)
0.28	O=C(COc1ccc2ccccc2c1)OCC(=O)c1ccc(Br)cc1
1	CC(=O)N1c2c(cc(Br)cc2S(=O)(=O)Nc2ccc(C)c(C)c2)CC1C (centres undefined)
0	CC1C2NC(=S)NC1(C)Oc1ccccc12 (centres undefined)
0.17	CCCC1SC2=NC(C)=C(C(C)=O)C(c3c(OC)ccc4ccccc34)N2C1=O (centres undefined)
0.06	COc1cccc(NC(=O)C2CCN(S(=O)(=O)c3ccc(Cl)cc3)CC2)c1
0.27	COCCCNS(=O)(=O)c1ccc2c(c1)CCN2C(C)=O
-0.62	O=c1c2ccc(Cl)cc2[nH]c(=S)n1CCN1CCOCC1
-0.13	Cc1ccc(O)c(C=Nc2ccc(O)c(-c3nc4cc(C)ccc4o3)c2)c1
-0.02	O=C(CSc1nc2sc3c(c2c(=O)n1-c1ccccc1)CCC3)Nc1ccc2c(c1)OCCO2
0.15	CC1CC(C)CN(S(=O)(=O)c2ccc(C(=O)Nc3nc(-c4nc5ccccc5s4)cs3)cc2)C1 (centres undefined)
0.06	O=C(Nc1ccc2c(c1)OCCO2)C1CCN(S(=O)(=O)c2ccc(F)cc2)CC1
-0.23	COC(=O)c1ccc(N2C(=O)CSC2c2ccccc2[N+](=O)[O-])cc1 (centres undefined)
-0.17	CCOc1ccc(-n2c(=O)c3c(C)c(C)sc3n(CC(=O)N3CC(C)CC(C)C3)c2=O)cc1 (centres undefined)
-1	CCCOc1ccc(C(=O)Oc2cccc3cccnc23)cc1
1.2	Cc1nc2sc(C(c3ccco3)N3CCN(CCO)CC3)c(O)n2n1 (centres undefined)
0.2	COc1ccc(C)cc1N(C)C(=O)Cc1c(C(=O)O)[nH]c2ccc(Cl)cc12
-0.46	CCCCn1c(C)nc2c(=O)oc3ccccc3c21
1.3	CCCOc1ccc(-c2nc(OC)c3ccccc3n2)cc1
-0.23	Fc1ccc(C2=Nn3c(nnc3-c3ccc(Br)cc3)SC2)cc1

Next section (four carried over from the part before).
Measles inh	SMILES
0.2	COc1ccc(C)cc1N(C)C(=O)Cc1c(C(=O)O)[nH]c2ccc(Cl)cc12
-0.46	CCCCn1c(C)nc2c(=O)oc3ccccc3c21
1.3	CCCOc1ccc(-c2nc(OC)c3ccccc3n2)cc1
-0.23	Fc1ccc(C2=Nn3c(nnc3-c3ccc(Br)cc3)SC2)cc1
-0.13	CC(C)c1ccc(C(=O)CC2(O)C(=O)N(Cc3ccccc3)c3ccc(Cl)cc32)cc1 (centres undefined)
0.31	O=C(NC1CCCC1)c1sc(=S)n2c1[nH]c(=O)c1ccc(C(=O)N3CCc4ccccc4C3)cc12
0.27	CC(=O)N1CCc2cc(Br)cc(S(=O)(=O)NCCN(C)Cc3ccccc3)c21
-0.54	CC(C)(C)C1CCc2c(sc(NC(=O)c3ccco3)c2C(=O)N2CCCC2)C1 (centres undefined)
-0.05	C=CCN(CC=C)S(=O)(=O)c1ncn[nH]1
0.11	O=C(Nc1nnc(-c2ccco2)s1)c1ccccc1Br
-0.13	Cc1ccc(S(=O)(=O)N(CC(=O)N2CCC(C)CC2)c2ccc(C)c(Cl)c2)cc1
-0.87	Cc1cc(C)c(NC(=O)CN2CCCCCC2)c(C)c1
-0.28	CCc1ccccc1NC(=O)CCS(=O)(=O)c1cccc2nsnc12
-1.6	Cc1ccc(NC(=O)CN2C(=O)C3C4CCC(C4)C3C2=O)cc1C (centres undefined)
-0.88	CC1CCCC(NC(=O)C2N(C(C)(C)C)C(=O)C3C(C(=O)Nc4ccc(Cl)cc4)C4C=CC32O4)C1C (centres undefined)
0.52	CCCCSc1nsc(NC(C)=O)n1
-0.51	CCn1cc(C(=O)N2CCCc3ccccc32)c2cc(OC)c(OC)cc2c1=O
-0.66	CC1CC(C)CN(CC(O)Cn2c3ccccc3c3ccccc32)C1 (centres undefined)
-2	O=C(NCc1ccco1)c1ccc2c(c1)ncn2C1CCCCC1
-0.47	O=c1oc2ccccc2cc1-c1csc(-c2ccc([N+](=O)[O-])cc2)n1
0.78	Cc1cc(C)cc(NC(=O)C(CC(C)C)NC(=O)C2CCCCC2)c1 (centres undefined)
-1.1	CC(=O)c1c(C)[nH]c(C(=O)Nc2cccc(C)c2C)c1C
-0.04	CCC(=O)N1c2ccc(S(=O)(=O)CCC(=O)N3CCN(c4ccc(C(C)=O)cc4)CC3)cc2CC1C (centres undefined)
0.31	Cc1cc(Oc2nc3c(c(=O)n(Cc4ccc(F)cc4)c(=O)n3C)n2C)cc(C)c1Cl

Some of the entries so far, with each value named:
> CC1CCCC(NC(=O)C2N(C(C)(C)C)C(=O)C3C(C(=O)Nc4ccc(Cl)cc4)C4C=CC32O4)C1C (centres undefined)
  Measles inh: -0.88
> CCCCSc1nsc(NC(C)=O)n1
  Measles inh: 0.52

The listing picks up, starting 6 compounds before the break.
Measles inh	SMILES
-2	O=C(NCc1ccco1)c1ccc2c(c1)ncn2C1CCCCC1
-0.47	O=c1oc2ccccc2cc1-c1csc(-c2ccc([N+](=O)[O-])cc2)n1
0.78	Cc1cc(C)cc(NC(=O)C(CC(C)C)NC(=O)C2CCCCC2)c1 (centres undefined)
-1.1	CC(=O)c1c(C)[nH]c(C(=O)Nc2cccc(C)c2C)c1C
-0.04	CCC(=O)N1c2ccc(S(=O)(=O)CCC(=O)N3CCN(c4ccc(C(C)=O)cc4)CC3)cc2CC1C (centres undefined)
0.31	Cc1cc(Oc2nc3c(c(=O)n(Cc4ccc(F)cc4)c(=O)n3C)n2C)cc(C)c1Cl
0.42	CC12CCC(C(=O)N(c3ccc(Br)cc3)C1=O)C2(C)C (centres undefined)
-0.89	Cc1sc2ncn(CC(=O)N3CCOCC3)c(=O)c2c1S(=O)(=O)N1CCOCC1
0.29	O=C1c2ccccc2C(=O)N1CCCCCCN1CCN(c2cccc(Cl)c2)CC1
-0.04	CCC(C)NC(=O)CSc1nc2ccccc2c(=O)n1CC1CCCO1 (centres undefined)
1.6	CCOC(=O)c1[nH]cnc1C(=O)N1CCOCC1
-1.3	COc1cccc(C2SCC(=O)N2c2ccc(Br)cc2)c1OC (centres undefined)
-0.67	NC(=O)c1cc2ccc(O)cc2oc1=Nc1ccc(F)cc1
0.39	Cc1ccc2ccc(S(=O)(=O)n3ccnc3C)cc2c1
-0.41	Clc1ccc(CSc2nnnn2-c2ccccc2)cc1
2	CCOC(=O)CSC1=Nc2ccccc2C2=NC(CC(=O)NC3CCCCC3)C(=O)N12 (centres undefined)
2.4	COc1ccc(C=Cc2ccc([N+](=O)[O-])cc2)cc1
0.06	Cc1ccc2oc(-c3ccc(N=CC=Cc4cccc([N+](=O)[O-])c4)cc3)nc2c1
1.8	CCCOc1ccc(-c2csc(NC(=O)c3ccc(S(=O)(=O)N4CC(C)CC(C)C4)cc3)n2)cc1 (centres undefined)
-5*	CCc1ccc(NC(=O)C2CCN(C(=O)c3ccccc3C)CC2)cc1
-0.79	COc1ccccc1-c1cc(C(=O)Nc2ccccc2C(F)(F)F)no1
-1.1	COc1ccc(CN2CCN(S(=O)(=O)c3ccc4ccccc4c3)CC2)cc1Br
-0.98	CCc1ccc(N2C(=O)c3ccccc3NC2c2ccc(N(C)C)cc2)cc1 (centres undefined)
-0.47	Cn1c(C=Cc2cccc(Oc3ccccc3)c2)c([N+](=O)[O-])c(=O)n(C)c1=O
-0.79	Cc1cc(C(=O)Nc2c[nH]c(=O)[nH]c2=O)ccc1[N+](=O)[O-]
-1.5	CC1CCCCC1NS(=O)(=O)c1cccs1 (centres undefined)
0.15	CCOCN(C(=O)CSc1nc2ccccc2s1)c1c(C)cccc1CC
-0.92	Cc1cccc2nc(Cn3c(=O)n(-c4ccccc4)c(=O)c4c5c(sc43)CCC5)cc(=O)n12
1.1	CSCCc1nc(SCC(=O)Nc2nnc(C)s2)[nH]c1C
-0.82	O=C(CCSCc1cccc(Cl)c1)NCc1ccc(F)cc1
-0.75	CN(C)c1cccc(NC(=O)C23CC4CC(CC(C4)C2)C3)c1
0.85	O=c1[nH]c(N2CCOCC2)nc2ncn(Cc3ccccc3)c12
0.28	O=S(=O)(Nc1ccccc1Cl)c1cccc2cccnc12
0.82	COC(=O)c1c(C)oc2c1cc(NS(=O)(=O)c1ccc(C)c([N+](=O)[O-])c1)c1ccccc12
-0.97	Cc1ccc(-c2nn(CC(=O)NCc3cccnc3)c(=O)c3ccccc23)cc1
0.2	CC(C)C(=O)Nc1sc2c(c1C#N)CCC2
0.15	CSc1ccc(C2SCC(=O)N2c2ccc(Cl)cc2)cc1 (centres undefined)
-0.43	C#CCn1c2ccccc2c2ccccc21
0.78	CCOC(=O)c1ccc(N2C(=O)C(Cl)=C(Nc3ccccc3C(=O)O)C2=O)cc1
0.48	COC(=O)C1=CN(C2CC2)C=C(C(=O)OC)C1c1ccc(Cl)c([N+](=O)[O-])c1
2.3	Cc1ccc2c(c1)Oc1cc([N+](=O)[O-])cc(Oc3ccccc3)c1C(=O)N2
-0.25	Cc1ccc(/C(O)=C2\C(=O)C(=O)N(CCC(=O)O)C2c2ccc(Br)cc2)cc1 (centres undefined)
-0.21	Cc1ccc(N2C(=O)CSC2c2ccc(C(C)(C)C)cc2)cc1F (centres undefined)
-2.1	COc1ccc(OC)c(NC(=O)c2c(C)c(-c3ccccc3)nc3ccccc23)c1
-0.13	Nc1cc(=O)[nH]c(=O)n1Cc1ccccc1
1.8	O=C(Cc1ccc(Nc2nc(=S)[nH]c3ccccc23)cc1)NCCc1ccccc1
0.55	CCOc1cc(C(=O)Nc2c(C)ccc3nsnc23)cc(OCC)c1OCC
-0.05	COc1cc(C=Nc2ccc(N(C)C(C)=O)cc2)ccc1OC(C)=O
-0.12	O=C(CSc1nc2ccccc2n1S(=O)(=O)c1ccc(Cl)cc1)NCc1ccccc1
-0.17	CCOc1cccc2cc(-c3nnc(NCc4ccc5c(c4)OCO5)s3)c(=O)oc12
0.77	O=C(CS(=O)(=O)c1cccc2nsnc12)N1CC(=O)N(CCc2ccccc2)C(=O)C1
-0.32	CCOC(=O)C1CCCN(C(=O)c2sc3ncnc(N4CCN(c5ccccc5F)CC4)c3c2C)C1 (centres undefined)
-0.42	CC1CCCCN1CCCNC(=O)c1cc(=O)[nH]c2ccc(S(=O)(=O)N3CCOCC3)cc12 (centres undefined)
-0.62	CCn1c(=N)c(C(N)=O)cc2c(=O)n3cccc(C)c3nc21
1.1	CCN(CC)CCn1c(=S)[nH]c2cc(C(=O)N3CCCC3)ccc2c1=O
-0.95	COc1ccc(-n2nc(C(=O)Nc3ccc(OC)c(Cl)c3)c3ccccc3c2=O)c(OC)c1
-0.18	Cc1cccc(Oc2nc3c(c(=O)n(C)c(=O)n3C)n2Cc2ccccc2Br)c1C
0.56	O=c1[nH]c(C=Cc2cccs2)c([N+](=O)[O-])c(=O)[nH]1
0.06	Cc1ccc(-n2nc(C(=O)Nc3cccnc3)c3c4ccccc4n(C)c3c2=O)cc1
-0.06	CN1CCN(C(C(=O)NC2CCCCC2)c2ccc(Cl)cc2)CC1 (centres undefined)
0.01	CCOc1ccc(-n2c(SCC(=O)Nc3ccc([N+](=O)[O-])cc3)nc3c(c2=O)SCC3)cc1
-1.2	COc1cc(OC)c(NC(=O)c2ccc(N3CC4CC(C3)c3cccc(=O)n3C4)c(NC(=O)c3ccc(Br)o3)c2)cc1Cl (centres undefined)
-1.6	COc1ccc(OC)c(CNS(=O)(=O)c2ccc3[nH]c(=O)sc3c2)c1
-0.4	Cc1cc(C)nc(Nc2nc3ccccc3s2)n1
-1.3	CC1CC(C)CN(C(C(=O)NC2CCCC2)c2ccccc2)C1 (centres undefined)
1.2	CC1(C)NC(=O)N(CC(O)CN2C(=O)c3ccccc3C2=O)C1=O (centres undefined)

The list goes on:
Measles inh	SMILES
-0.02	O=C(O)c1ccc(-c2ccc(C(=O)O)c(C(=O)O)c2)cc1C(=O)O
-0.63	O=C(CCc1ccccc1)Nc1cccc2nsnc12
1.1	Cc1onc(-c2ccccc2Cl)c1C(=O)NCCCc1ccccc1
-0.44	Fc1ccccc1C=C1CCCC2=C1Nc1nnnn1C2c1ccccc1F (centres undefined)
0.44	COc1ccc(C(=O)N2N=C(c3cccc(Br)c3)CC2(O)C(F)(F)F)cc1 (centres undefined)
0.47	CCOc1cccc2c1OC(c1ccc(C(=O)OC)cc1)N1N=C(c3ccco3)CC21 (centres undefined)
0.82	COc1ccc(OC)c(N=C2NC(=O)CC(C(=O)Nc3cc(C(F)(F)F)ccc3Cl)S2)c1 (centres undefined)
-0.27	COc1ccc(NC(=O)c2coc(=O)c3ccccc23)c(OC)c1
0.08	CN(Cc1ccccc1)C(=O)c1cnc(Nc2ccc(F)cc2)c2ccccc12
0.15	O=C(Cn1nc(-c2ccccc2)ccc1=O)NCc1ccc2c(c1)OCO2
-0.46	Oc1ccccc1C1Oc2ccccc2C2CC(c3cccs3)=NN21 (centres undefined)
0.15	COC(=O)C1=CN(C2CCCC2)C=C(C(=O)OC)C1c1ccc(C)s1
-0.17	COC(=O)c1ccc(NC(=O)c2cc3c(CO)cnc(C)c3oc2=Nc2ccc(C(N)=O)cc2)cc1
-0.2	CN(C(=O)c1cn(-c2ccc(Cl)cc2)c(=O)c2ccccc12)c1ccc(Cl)cc1
0.02	CCN(CC)c1ccc(C2C3=C(CC(C)(C)CC3=O)Nc3ccc4ccccc4c32)cc1 (centres undefined)
1.6	CSc1ccc(C2C(C(=O)OC3CCCCC3)=C(C)Nc3nnnn32)cc1 (centres undefined)
0.26	CCc1nnc(NS(=O)(=O)c2ccc(NC(=O)c3ccc(S(=O)(=O)N4CCCCC4)cc3)cc2)s1
1.2	O=c1c2ccccc2[nH]c(=S)n1CCn1c(=S)[nH]c2ccccc2c1=O
-0.71	CC(C)c1ccc(NS(=O)(=O)c2ccc3[nH]cc(C(=O)NC4CC4)c(=O)c3c2)cc1
0	O=C(O)C1c2ccccc2-c2ccccc21
0.13	Cc1cccc(NC(=O)c2cc(S(=O)(=O)N3CCC(C)CC3)ccc2F)c1C
-0.3	CCOC(=O)c1c(NC(=O)CSc2c[nH]c3ccccc23)sc2c1CCC2

Some of the compounds tested; count on the stated rates, not on these rows.
